Source: PubChem BioAssay (National Center for Advancing Translational Sciences (NCATS))
ClpP mod = qHTS Assay for Activators of ClpP; ATP-dependent Clp protease proteolytic subunit (Bacillus subtilis (strain 168)), P80244; purified B. subtilis ClpP, FRET peptide cleavage, 20 min; Potency, µM (titrated, usually from 57.5 µM), inactives show top-dose activity change, negative = active; 340,000 tested, 1.9% active; active = well fitted falling curve with a large enough effect; inconclusive = small, poorly fitted or top-dose-only effect; inactive = no such curve, though single readings can be large or run the other way; also: potency is read from the fitted curve at half-maximal effect; the source files actives as falling curves though it sought activators and does not explain the sign; nearly all actives have a fitted effect of over 65% in size; many hits overshoot -100%
Target sequence (P80244 whole entry, looked up): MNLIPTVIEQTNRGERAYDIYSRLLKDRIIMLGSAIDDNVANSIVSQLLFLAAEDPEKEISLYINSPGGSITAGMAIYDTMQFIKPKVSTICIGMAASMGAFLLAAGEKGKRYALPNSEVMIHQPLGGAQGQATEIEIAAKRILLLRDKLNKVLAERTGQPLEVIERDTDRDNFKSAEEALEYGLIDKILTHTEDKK
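ClpP 10 microg/mL final, pH 8 Tris/KCl buffer with BSA, glycerol, Tween-20; compound pinned in; FRET-FV substrate; RT 20 min; Ex320/Em430; ΔFRET vs ADEP 5.8 microM, DMSO, no enzyme.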
PINK1 modulator = changes PINK1 expression. PINK1 immunofluorescence, high-content cytometry, 24 h. Potency, µM (top dose mostly 76.6 µM), for inactives: at the highest dose activation (PINK1 increase), hits mostly activators. 410,000 tested, 0.2% active; active = well fitted activation curve with a large enough effect; inconclusive = small, poorly fitted or top-dose-only effect; inactive = flat fitted curve, though single readings scatter; cell line not stated here;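 also: potency is read from the fitted curve at half-maximal effect; % of control where 0% means no effect; nearly all actives have a fitted effect of over 65% in size; a mitochondrial uncoupler was the plate control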
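Stable cell line, 250 cells/well, 12 h attachment; compounds pinned at 5 concentrations, 24 h; CCCP control. Fixed with nuclear dye, primary antibodies 12 h at 10 degrees C, secondary plus cell stain; laser-scanning cytometer read.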
Sfp inh = blocks B. subtilis Sfp PPTase activity. Q9F4F7. Biochemical Sfp PPTase activity, qHTS. Potency, µM, without a hit: max response, negative = inhibition, usual class: inhibitors. 310,000 tested, 3.5% active. AID 1490; active = well fitted inhibition curve with a large enough effect; inconclusive = small, poorly fitted or top-dose-only effect, or another doubt; inactive = no such curve, though single readings can be large or run the other way;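 also: the enzyme is Sfp with the accession as filed and its product quenches rhodamine fluorescence; potency is read from the fitted curve at half-maximal effect; 0% = enzyme reaction without inhibitor and -100% = no enzyme wells; top concentration of the series not given in the record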
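After 15 min at room temperature with compound, 15 nM Sfp received 5 uM rhodamine-CoA plus 12.5 uM BHQ-2-ybbR (50 mM Hepes pH 7.6, 10 mM MgCl2). Rate came from the fluorescence difference over 30 min, ex 525/em 598 nm.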
gsp antag = antagonists of gsp mutant (McCune-Albright syndrome) | Potency, µM (doses to about 76.9 µM), for inactives: at the top dose activity change, negative = inhibition, usual class: inhibitors | gsp-mutant cells, cAMP HTRF, 30 min; control for the full effect not named in the record | 340,000 tested, 0.4% active; active = falling curve of any shape with a large fitted effect; inconclusive = falling curve, mostly with a smaller effect; inactive = flat or rising curve; cell line not stated here;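 also: intracellular cAMP measured with PDE inhibitor Ro 20-1724 present during compound exposure; potency is read from the fitted curve at half-maximal effect; % is scaled to controls: 0 for no effect and ±100 for the full control effect; nearly all actives have a fitted effect of over 65% in size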
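Cells, 2000/well, grown 16–24 h in DMEM 10% FBS with 0.5 mg/ml G418, then compounds plus […] (300 uM addition stock), 30 min at 37C. cAMP read by HTRF (cAMP-d2 and anti-cAMP antibody-K in lysis buffer) after 30 min RT.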
Menin MLL FP FL = menin-MLL binding inhibition, fluorescein peptide | 290,000 tested, under 10 active | FP activity change, % at 61.4 µM | Fluorescence polarization, fluorescein-MLL peptide displacement from menin; inconclusive = falling polarisation curve, or a change in total fluorescence; inactive = total fluorescence flat and polarisation flat or rising; no compound was filed as active; the % refers to the polarisation; negative = inhibition;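 also: % of control where 0% means no effect; inhibitors lower the polarisation; unlabelled MLL peptide was the positive control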
gsp ag = agonists of gsp mutant (McCune-Albright syndrome); gsp mutant cells, cAMP HTRF, 30 min; control for the full effect not named in the record; Potency, µM (highest dose often 76.9 µM), inactives show top-dose activation (cAMP increase), actives largely listed as activators; 340,000 tested, 0.13% active; active = well fitted activation curve with a large enough effect; inconclusive = small, poorly fitted or top-dose-only effect, or another doubt; inactive = no such curve, though single readings can be large or run the other way; cell line not stated here;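 also: phosphodiesterase inhibitor Ro 20-1724 added with compounds to block cAMP breakdown; potency is read from the fitted curve at half-maximal effect; nearly all actives have a fitted effect of over 60% in size; about a fifth of the inactives were tested at one dose only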
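Cells stably selected in G418 were plated at 2000/well, grown 16-24 hr, then given compounds in DMSO with the PDE inhibitor […] (300 uM solution added) for 30 min at 37C; cAMP was read by HTRF.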
D2 ag = activates the human D2 dopamine receptor; DiscoveRx PathHunter D2 beta-arrestin, luminescence, 90 min; 100% = 57 uM dopamine signal; P14416; 360,000 tested, 0.084% active; AID 624465; activation, % (concentration not given with the values); in the data active = activation above about 40%; inconclusive = about 15% to 40%; inactive = below about 15%; also: compound concentration not given in the record; the text of the record calls up to 30% inactive
Target sequence (P14416 whole entry, looked up): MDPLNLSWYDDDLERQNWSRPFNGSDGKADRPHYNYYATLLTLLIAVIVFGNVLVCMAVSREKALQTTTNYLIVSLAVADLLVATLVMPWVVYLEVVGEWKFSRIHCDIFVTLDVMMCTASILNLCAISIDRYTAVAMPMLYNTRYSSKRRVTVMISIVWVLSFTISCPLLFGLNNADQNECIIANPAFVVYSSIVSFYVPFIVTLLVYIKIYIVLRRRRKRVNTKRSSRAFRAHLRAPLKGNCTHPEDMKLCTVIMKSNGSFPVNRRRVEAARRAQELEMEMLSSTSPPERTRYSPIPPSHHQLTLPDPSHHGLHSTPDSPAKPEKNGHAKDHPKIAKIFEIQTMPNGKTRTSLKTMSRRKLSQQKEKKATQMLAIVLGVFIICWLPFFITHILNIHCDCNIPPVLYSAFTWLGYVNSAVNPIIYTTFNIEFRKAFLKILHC
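Agonist mode: compounds alone added to overnight-plated D2 PathHunter cells for 90 min at 37 C, with 57 uM final dopamine (EC100) defining full response. Beta-arrestin recruitment detected by chemiluminescent reagent, read after 1 h at ambient temperature.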
The depositor's hits bear a star; ? = inconclusive; . = no result given; & = joins results of further samples; [ ] = remark or other dose.

Values run as follows: ClpP mod, PINK1 modulator, Sfp inh, gsp antag, Menin MLL FP FL, gsp ag, D2 ag
> CCOc1c(Br)cc(C2NC(=O)CCC2[N+](=O)[O-])cc1OC (centres undefined)
→ 1.8%, -1.4%, 21%, 2%, 4.4, ?, 3.5
> CC(C)Oc1ccc(/C(O)=C2/C(=O)C(=O)N(CCN3CCNCC3)C2c2cccc([N+](=O)[O-])c2)cc1 (centres undefined)
→ 1.3%, 0.5%, 16%, 4%, -2.0, 14%[15.4 µM], -1.3
> COc1ccc(C(=O)N(CN2CCCC2=O)c2ccccc2OC)cc1OC
→ -0.2%, -0.3%, 11%, 6%, 1.1, -59%[inhibitor], -5.2
> O=C(O)c1ccc(N2C(=O)CC(SC(=Nc3ccccc3)Nc3ccccc3)C2=O)cc1 (centres undefined)
→ 0.1%, 5.6%, 7%, 6%, 2.3, 14%[15.4 µM], 1.2
> Cc1ccc(Oc2nc(-c3cccnc3)nc3ccccc23)c([N+](=O)[O-])n1
→ -1.3%, 0.7%, 11%, -2%, -0.4, 7%[15.4 µM], -5.2
> COc1ccc(C(C#N)N2N=C(C)CC2c2ccccc2)cc1 (centres undefined)
→ ., 1.8%, 12%, 11%, -3.4, -2%[15.4 µM], 0.2
> Cc1[nH]c2ccc(-c3n[nH]c(=S)n3-c3ccccc3)cc2c1C
→ -29%, -0.5%, -11%, -5%, 4.4, -30%[inhibitor], 2.3
> C=CCSc1nnc(NC(=O)CN2C(=O)NC3(CCCC3)C2=O)s1
→ -6.4%, 6.8%, 15%, 4%, ., -17%, 0.2
> Cc1cc(NC(=O)CCSc2nc(-c3ccco3)cc(C(F)(F)F)n2)no1
→ -8.8%, 6.6%, 15%, 12%, 1.5, 2%, -3.4
> CCN(CC)c1ccc(NC(=O)COC(=O)CSc2ccc(Br)cc2C)cc1
→ -3.0%, -2.6%, 3.5µM*, 4%, 2.7, 19%, -5.6
> Cn1nc(C(=O)N2CCN(S(=O)(=O)c3ccccc3)CC2)c2ccccc2c1=O
→ 0.9%, -0.6%, 2%, -7%, 3.1, 16%, -3.0
> Cc1nc(N2CCN(Cc3ccccc3)CC2)[nH]c(=O)c1C
→ -1.4%, -2.3%, -8%, 0%, 0.5, -61%[inhibitor], 1.5
> Cc1cc(COc2ccccc2O)on1
→ -1.1%, 0.8%, 3%, 8%, -0.7, 5%, 2.9
> O=C(CN1CCN(S(=O)(=O)c2ccc(Br)cc2)CC1)N/N=C/c1cc([N+](=O)[O-])ccc1Cl
→ 1.2%, 0.2%, 0%, ?, -0.2, -85%[inhibitor], 1.4
> CC(C)(C)c1ccc(-n2ncc3c2CCCC3NC(=O)CN2CCOC2=O)cc1 (centres undefined)
→ 0.2%, 0.1%, 16%, 2%, ., 30%, -3.2
> COc1ccc(C(=O)NC2CCN(C(=S)Nc3cc(C)ccc3C)CC2)cc1
→ -3.8%, 3.8%[38.3 µM], 21%, -4%, 2.2, 0%, 2.1
> COc1ccc(NC(=S)N2CCN(Cc3cccc(F)c3)CC2)c(OC)c1
→ ., -1.1%, 5%, ., -0.4, -8%[15.4 µM], -0.6
> Nc1nc(Nc2cccc(Cl)c2)n[nH]1
→ ., -3.1%, 7%, 2%, -1.2, 1%, -2.0
> Brc1ccc(C2=Nn3cnnc3SC2)cc1
→ -0.5%, 2.7%, 3%, 0%, -1.2, -8%, -4.2
> COC(=O)c1sccc1NC(=O)CSc1ccccc1NS(=O)(=O)c1cc(Cl)ccc1Cl
→ -4.8%, 18%, 3%, -26%, 4.5, -17%, -0.9
> CCNC(=S)N1CCC(C(=O)c2ccc(Cl)cc2)CC1
→ -0.7%, 2.7%, 2%, -15%, 0.3, -9%, -2.2
> Cc1cc(NS(=O)(=O)c2ccc(NC(=O)/C=C/c3c(F)cccc3Cl)cc2)no1
→ -1.4%, -0.6%, 5%, ?, 1.0, -2%[15.4 µM], -4.6
> O=C1CN(C(=O)COC(=O)CNS(=O)(=O)c2ccccc2)c2ccccc2N1
→ ., 0.0%, 12%, 7%, -1.9, -8%[15.4 µM], -2.7
> COc1ccc(CCNC(=O)C23CCC(C)(C(=O)O2)C3(C)C)cc1OC (centres undefined)
→ 0.7%, -0.4%, 12%, 17%, 1.8, -25%, -4.3
> CCN(CC)S(=O)(=O)c1cccc(-c2nnc(SCC#N)n2Cc2ccccc2)c1
→ -1.4%, -3.6%, 9%, -33%, -1.6, -17%, 0.8
> CC(C(=O)NCC1CCCO1)N1C(=O)C2C3CC(C(Br)C3Br)C2C1=O (centres undefined)
→ ., 0.4%, 14%, 1%, 0.6, 1%[15.4 µM], -0.3
> CCN1C[C@@H]2[C@@H]3C(=O)N(Cc4ccccc4)C(=O)[C@@H]3[C@](CC)(C1=O)N2C(=O)c1ccc(C(C)(C)C)cc1
→ -0.6%, -0.1%, ., -7%, ., -3%, -0.7
> S=C(c1ccc(N2CCCC2)c(Br)c1)N1CCCCC1
→ 0.3%, 4.0%, -3%, -14%, 1.1, -16%[15.4 µM], -6.3
> COc1ccc(Cl)cc1C(=O)NNC(=O)CCNC(=O)c1ccccc1
→ -1.0%, -1.0%, ., ., ., -7%, -2.6
> Cc1ccc(OCC(=O)c2c(N)n(C)c(=O)n(C)c2=O)c([N+](=O)[O-])n1
→ -0.6%, -1.0%, ., 14%, ., ?, -2.4
> Cn1c(=O)[nH]c(=O)c2c1nc(SCC(N)=O)n2Cc1cccc(Br)c1
→ 0.8%, 1.3%, 5%, 4%, 0.4, ?, 3.8
> O=C(COc1ccccc1)N=C1SC2CS(=O)(=O)CC2N1c1ccc(F)cc1 (centres undefined)
→ 2.7%, 1.1%, 18%, -4%, -2.0, -28%, -0.2
> O=C(c1ccc2c(=O)n3c(nc2c1)CCCCC3)N1CCN(C(c2ccccc2)c2ccccc2)CC1
→ 6.2%, 5.8%[38.3 µM], -3%, -7%, 1.9, -45%[inhibitor], -3.2
> O=C(CCSCc1ccc(Cl)cc1)NCc1cccs1
→ -0.3%, -0.3%, 10%, 4%, 0.4, 3%[15.4 µM], -4.0
> CN1CCCN(C(=O)C2CCC(C(=O)N3CCCN(C)CC3)CC2)CC1 (centres undefined)
→ -2.4%, 0.7%, 0%, -1%, -4.1, -16%[15.4 µM], 2.1
> COc1ccc(Cc2nc3ccccc3n2CC(=O)N/N=C/c2ccccc2)cc1OC
→ 16%, 0.0%, -10%, -14%, 1.1, 21%, -4.8
> COc1ccc(-c2csc3ncnc(N4CCN(c5ccccc5O)CC4)c23)cc1
→ ?, -0.5%, -5%, -5%, ., -3%, 1.2
> COc1cc(OC)cc(C(=O)Nc2cc(C)nn2-c2ccccc2)c1
→ ., -1.5%, 3%, -10%, -2.1, -1%, -2.9
> O=C(O)C1=CCCN(CCON=C(c2ccccc2)c2ccccc2)C1
→ -2.6%, 2.4%, 16%&4%, -12%, 0.6&-0.1, ., -1.2
> Cc1ccc(NC(=O)N(CCC(=O)O)Cc2ccccc2)cc1
→ ., -1.2%, 25%, 7%, -0.1, 1%[15.4 µM], -1.9
> Cc1ccc(NC(=O)c2ccc(S(=O)(=O)NCc3ccco3)cc2)nc1
→ 6.3%, 7.3%, ., 6%, ., 14%, 0.2
> C=CCOc1ccc(/C(O)=C2/C(=O)C(=O)N(CCN3CCOCC3)C2c2ccc(C)cc2)cc1 (centres undefined)
→ 4.6%, -1.9%, 14%, -17%, 6.9, ?, -3.0
> CC(=O)Oc1ccc(OC(C)=O)c(SCCCCCN2CCOCC2)c1
→ -8.0%, 6.2%[38.3 µM], 79µM*, 2%, 4.4, -60%[inhibitor], 2.9
> COc1cc2c(c(OC)c1OC)C(=O)CC2
→ ., 1.2%, 23%, 10%, -2.3, 14%, -3.7
> CCOc1ccc(NC(=O)CSc2nc3ccccc3c(=O)n2CCCC(=O)N2CCCC2)cc1
→ -1.1%, ., 15%, -14%, -0.6, 3%, -1.7
> CCN(CC)CCCn1c2c(c(SCC(=O)Nc3cc(C)on3)nc1=O)CCC2
→ -4.8%, -2.6%, ., 9%, ., 5%, -2.7
> Cc1c(C=O)c(C=O)c(C)n1Cc1ccccc1
→ 0.1%, -0.1%, -5%, -2%, -1.6, -25%, -2.5
> Cc1[nH]nc(SCC(=O)NCC(C)C)c1[N+](=O)[O-]
→ 0.6%, 1.7%, 4%, 9%, -0.4, 16%, -2.2
> CCc1cccc(NC(=O)C2CCN(S(=O)(=O)c3ccc4c(c3)CC(C)N4C(C)=O)CC2)c1 (centres undefined)
→ -8.0%, 0.1%, 7%, -25%, -0.5, 14%, -4.9
> Cc1cnc(CN(C)Cc2nc(Cc3cccc(C(F)(F)F)c3)no2)[nH]1
→ ., 2.2%, 12%, 7%, 0.2, 7%[15.4 µM], -0.8
> CCC(C)NC(=O)CN1C(=O)CC(C)(C)S(=O)(=O)c2ccccc21 (centres undefined)
→ 0.7%, 2.8%, 9%, 7%, 3.0, 0%, -6.1
> COCCNC(=O)c1ccc(CSCc2cccc(Cl)c2)o1
→ 0.3%, 0.6%, 6%, -1%, 0.5, -21%, -6.8
> CC(C)(C)c1nc(SCC(=O)Nc2ccc(N3CCOCC3)cc2)c2ccccc2n1
→ 2.2%, 1.3%, 9%, 0%, 0.7, -7%, -0.3
> Cc1cc(C)cc(NC(=O)c2cccc(NC(=O)C3C4CC5OC(=O)C3C5C4)c2)c1 (centres undefined)
→ -2.4%, -2.5%[38.3 µM], 11%, ?, 1.1, -38%[inhibitor], -1.4
> CC(C)(C)N(Cc1ccccc1)C(=O)CCc1ccccc1
→ ., 0.9%, -26%, -7%, 3.1, -6%[15.4 µM], -1.8
> CC#C[C@]1(O)CC[C@H]2[C@@H]3CCC4=CC(=O)CCC4=C3[C@@H](c3ccc(N(C)C)cc3)C[C@@]21C
→ 1.3%, 0.9%, -5%&-19%, 35µM*, -1.1&-2.1, ., -4.5
> Cc1ccc(S(=O)(=O)Nc2cc(S(=O)(=O)N3CCCCC3)ccc2N2CCOCC2)cc1
→ ., 0.9%, 18%, 4%, 1.9, -15%, -0.2
